Sa RN4220 lethal: S. aureus RN4220 growth inhibition. OD600, 16 h. inhibition, % (test concentration not listed). actives 0.33% (n = 330,000);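 active = z-score of -3 or lower and OD600 up to 0.18 on both plates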;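 also: plate controls were untreated cells for no effect and reference antibiotic for full effect; stock transfer was 100 nL into about 80 µL; one replicate is shown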
PrP UTR inh: inhibition of PrP 5' UTR reporter expression; actives 0.35% (n = 340,000); inhibition, % (concentration not given with the values); cell-based PrP 5' UTR mRNA reporter, plate reader;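 active = every replicate at 50% or more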;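 also: 0 = median of the neutral control wells; tested in H4 reporter cells; numbers are from one replicate; inactives centre near -14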
Mtb hypoxia inh: Mtb hypoxia fluorescent reporter inhibition; M. tuberculosis hypoxia-regulated fluorescent reporter, fluorescence; fluorescence inhibition, % (test concentration not listed); actives 0.1% (n = 300,000); AID 1159583;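 active = 35 to 45% if threefold the growth effect, above 45% if 1.5-fold the growth effect; inactive = the rest, general growth blockers included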;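 also: wells of about 50 µL received 100 nL stock; 0% = vehicle wells and 100% = reference inhibitor wells; whole bacteria with a GFP reporter of the hypoxia response; strong numbers were not always called active; many hits fall short of the cut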
BJeLR viability: kills HRASV12-expressing BJeLR cells; BJeLR (HRASV12) viability, CellTiter-Glo ATP luminescence, 48 h; reference of the scale not given here; inhibition, % (test concentration not listed); actives 0.17% (n = 300,000);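 active = replicate mean above 50%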;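 also: 50 nL library stock added to about 25 µL; numbers are from one replicate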
ugtP null kill: growth inhibition of S. aureus ugtP deletion strain; S. aureus RN4220 ugtP deletion, OD600 growth, 16 h; some inactives read as strong as hits; growth inhibition, % (test concentration not listed); actives 0.54% (n = 330,000); AID 1259309;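 active = z-score under -3 and OD600 up to 0.15 on both plates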;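 also: plate controls were untreated wells for no effect and antibiotic for full effect; wells of about 80 µL received 100 nL stock; the first replicate is given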
Bead autofluor: flagged as autofluorescent in microsphere protease counterscreen; compound autofluorescence counterscreen, microsphere flow cytometry; hits give high values; actives 3.1% (n = 360,000); AID 624483; fluorescence intensity (test concentration not listed);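 active = at least 3 SD above the mean of all compounds, about 16000 in these data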;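 also: 100 nL of 1 mM stock went into each well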
Mtb hypoxia inh growth: recorded beside Mtb hypoxia inh, whose call it bears; growth inhibition, %; measured here: M. tuberculosis growth (absorbance);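 0% = vehicle and 100% = reference antibiotic; read after six days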
Numbers without * were called inactive; nt = no result given; & = joins results of further samples.

Start of the data: the first six records, to show the layout:
smiles,Sa RN4220 lethal,PrP UTR inh,Mtb hypoxia inh,Mtb hypoxia inh growth,BJeLR viability,ugtP null kill,Bead autofluor
C=C(C)COc1ccc(-c2nc(N)ncc2Oc2ccccc2OC)c(O)c1,-2.7,-1,nt,nt,nt,2,3285
O=C(Nc1cccc(C(F)(F)F)c1)c1cccnc1N1CCN(c2ccccc2)CC1,-9.7,-8,3,2,-3,92*,7023
COc1ccc(NC2CCCN(C(=O)CCc3ccncc3)C2)cc1OC (configuration not stated),-0.9,-8,0,8,5,-2,6228
Cc1ccccc1CN1C(=O)C2(OCCCO2)c2ccccc21,3.6,-25,5,8,2,5,10953
N#Cc1c(N)sc2c1CCCCCC2,9.0,-9,3,2,0,-1,24025*
O=C(NCC1CCCO1)C1CCN(S(=O)(=O)c2cccc3nonc23)CC1 (configuration not stated),0.4,-21,nt,nt,1,2,4428

Results, from the first entry:
smiles,Sa RN4220 lethal,PrP UTR inh,Mtb hypoxia inh,Mtb hypoxia inh growth,BJeLR viability,ugtP null kill,Bead autofluor
C=C(C)COc1ccc(-c2nc(N)ncc2Oc2ccccc2OC)c(O)c1,-2.7,-1,nt,nt,nt,2,3285
O=C(Nc1cccc(C(F)(F)F)c1)c1cccnc1N1CCN(c2ccccc2)CC1,-9.7,-8,3,2,-3,92*,7023
COc1ccc(NC2CCCN(C(=O)CCc3ccncc3)C2)cc1OC (configuration not stated),-0.9,-8,0,8,5,-2,6228
Cc1ccccc1CN1C(=O)C2(OCCCO2)c2ccccc21,3.6,-25,5,8,2,5,10953
N#Cc1c(N)sc2c1CCCCCC2,9.0,-9,3,2,0,-1,24025*
O=C(NCC1CCCO1)C1CCN(S(=O)(=O)c2cccc3nonc23)CC1 (configuration not stated),0.4,-21,nt,nt,1,2,4428
Cc1ccc(-n2cnn(-c3ccc([N+](=O)[O-])cc3[N+](=O)[O-])c2=O)cc1,6.8,0,5,-1,1,6,3599
CCOC(=O)c1c(N=CC2C(=O)NC(=S)NC2=O)sc2c1CCC2,6.9,nt,13,-1,nt,-4,nt
COc1ccccc1CNC(=O)C1CCN(S(=O)(=O)c2ccc3c(c2)NC(=O)CO3)CC1,1.7,-12,-8,-2,4,0,5359
CC(C)CC(CO)N1CCN(C(=O)c2ccc(Cl)c(Cl)c2)CCC1=O (configuration not stated),5.7,-3,-1,4,-2,3,4080
COCCNC(=S)N(CCc1c(C)[nH]c2ccc(F)cc12)Cc1cccs1,9.8,-13,-2,8,-3,-12,4641
Cc1ccc(CC2S/C(=C(/C#N)C(=O)NCc3ccco3)N(c3ccccc3)C2=O)cc1 (configuration not stated),2.0,-19,-2,4,-17,-7,9135
Cc1ccc(NS(=O)(=O)c2ccccc2)c2c1CC(C)(C)O2,12,-12,nt,nt,5,9,3028
COc1ccc(C2=NOC(C(=O)Nc3ccc(C)cc3)C2)cc1OC (configuration not stated),-1.5,-4,-3,9,3,9,21677*
CN(C)CCCn1c(NC(=O)C2CCCCC2)nc2ccccc21,3.9,-7,-2,-2,-4,4,7949

(continued)
smiles,Sa RN4220 lethal,PrP UTR inh,Mtb hypoxia inh,Mtb hypoxia inh growth,BJeLR viability,ugtP null kill,Bead autofluor
C=CCNC(C(=O)Nc1cccc(OC)c1)c1ccccc1 (configuration not stated),-0.5,-22,3,4,-12,-1,4120
CCN(CC)c1ccc(/C=N/N2CCOCC2)c(O)c1,nt,-51,nt,nt,9,nt,10349
CC(=O)OC1C([N+]2(C)CCCCC2)C[C@H]2C3CC[C@H]4C[C@H](OC(C)=O)C([N+]5(C)CCCCC5)CC4(C)[C@H]3CCC12C (some centres not stated),nt,1,nt,nt,-3,nt,4464
COc1cccc(C(=O)NC23CC4CC(CC(C4)C2)C3)c1,-1.5,1,-3,8,-18,-1,4189
O=C(O)c1ccccc1C(=O)NCc1ccc2c(c1)OCO2,3.6,-8,3,3,1,0,4446
O=C(Nc1nccs1)[C@@H]1CCCN1S(=O)(=O)c1ccc(Cl)cc1,2.3,-23,6,10,nt,1,3765
O=C(N/N=C/c1ccc(OC(F)F)cc1OC(F)F)c1ccc(Br)cc1,nt,-17,nt,nt,2,nt,2353
Clc1ccc(OCc2nn3c(-c4ccco4)nnc3s2)cc1,-0.8,-14,nt,nt,4,2,2524
COc1ccccc1CNC(=O)c1sccc1-c1ccccc1,29,1,5,3,0,6,4622
COc1ccc(CCNC(=O)c2cnc(Cl)c(Cl)c2)cc1,1.4,-15,17,1,1,1,4238
CCn1cc(CN2CCC(n3nccc3NC(=O)c3cccc(F)c3)CC2)c(C)n1,0.7,-9,10,3,3,8,4512
Cc1ccc(C(=O)NNC(=O)CNc2cccc(Cl)c2)cc1,3.3,-26,20,-4,3,1,4628
Cc1ccc(S(=O)(=O)c2cc3c(=O)n4ccccc4nc3n(C)c2=N)cc1,nt,-17,nt,nt,-29,nt,18992*
CCOC(=O)N1CCN(S(=O)(=O)c2ccc(C)cc2)C1,2.6,-7,2,8,3,6,3745
Cc1ccc(S(=O)(=O)Oc2ccc3ccc(O)cc3c2)cc1,4.2,-48,15,0,1,13,3580

Following part
smiles,Sa RN4220 lethal,PrP UTR inh,Mtb hypoxia inh,Mtb hypoxia inh growth,BJeLR viability,ugtP null kill,Bead autofluor
CC(C)(C)OC(=O)CC1CC=CCC(CC(=O)N(CCO)Cc2ccccc2)C(=O)NC(C(C)(C)C)COC1=O (configuration not stated),3.6&4.7&4.3&2.8,nt,10&8&3&-2,5&10&6&10,nt,-2&-2&0&-10,nt
CC(=O)NC(CCCN1C(=O)c2ccccc2C1=O)c1nnn(C)n1 (configuration not stated),3.6,-26,nt,nt,-17,0,2495
CC(C)CCNC(=O)C1CCN(S(=O)(=O)c2ccc3nc4c(c(C(=O)O)c3c2)CCCCC4)CC1,4.0,-6,9,1,6,15,5869
COc1cccc(OC)c1OCCOCCn1cnc2ccccc2c1=O,8.9,-33,8,2,3,0,9954
CCc1ccccc1-n1ncc(C(=O)Nc2ccccc2OC)c1C,2.3,-11,4,-2,-1,11,3930
COc1ccc(NC(=O)C(c2ccc(C)cc2)N(C)C(=O)c2cnccn2)cc1 (configuration not stated),-1.0,-14,nt,nt,nt,-2,3113
Cc1ccc(NC(=O)N2CCCn3c(SCC(=O)c4ccccc4)nnc32)cc1,-1.2,nt,-3,-6,-8,2,5409
CCCCn1nc2cc(C(=O)NCC3CC3)ccc2c1OCC,1.8,7,8,9,-7,1,3949
CC1CCCCN1C(=O)Nc1ccccc1Cl (configuration not stated),0.2,-17,7,6,0,6,2473
COc1ccc(-c2csc3ncn(-c4cccc(C)c4)c(=O)c23)cc1OC,7.8,-10,4,9,1,1,2462
COc1ccc2nc(SCC(=O)Nc3ccccc3C)[nH]c2c1,3.3,-28,-4,-2,9,-2,20993*
COc1ccc(CSc2nnc(NC(C)=O)s2)cc1[N+](=O)[O-],6.4,-13,11,-6,nt,0,2423
O=C(CCC1CCCCC1)NCCS(=O)(=O)N1CCN(c2ccc(F)cc2)CC1,1.4,-16,-5,11,8,-4,5595
CCOC(=O)c1c(C)[nH]sc1=S,2.3,-7,0,4,5,0,4700
OCCCCNCc1ccc(OCc2ccccc2Cl)cc1,0.0,-9,12,19,-8,-2,9313

New compounds follow:
smiles,Sa RN4220 lethal,PrP UTR inh,Mtb hypoxia inh,Mtb hypoxia inh growth,BJeLR viability,ugtP null kill,Bead autofluor
COc1ccc(OC)c(CCNC(=O)CN2C(=O)COc3ccc(S(=O)(=O)N4CCOCC4)cc32)c1,0.5,4,3,15,-5,-4,5745
CCCCNC(=O)CNC(=S)N(Cc1ccc(C)cc1)Cc1ccco1,5.5,-13,14,10,7,10,3481
CCNS(=O)(=O)c1ccc(NC(=O)c2ccccc2OCC)cc1,4.0,-15,4,10,0,-4,7427
COc1cc(C(=O)NC(=S)Nc2cccc(-c3cc4ccccc4oc3=O)c2)cc(OC)c1OC,14,8,-5,5,-10,4,2555
O=C1OCCC1Sc1nnnn1-c1ccc(Cl)cc1 (configuration not stated),14,-17,-10,-10,-27,5,3280
C=CCn1c(SCC(=O)c2c(C)[nH]c3ccccc23)nnc1-c1ccncc1,3.9,-30,-3,-1,-3,0,4499
CC(C)C1/C(=N/O)CC(c2ccccc2)NC1c1ccccc1 (configuration not stated),nt,-8,nt,nt,-1,nt,2964
Cc1ccn(CC(=O)N2CCCC(Nc3ccc(F)c(F)c3)C2)n1 (configuration not stated),-0.6,-2,-4,-6,-1,-3,6639
COc1ccc(CCNC(=O)C23CN(Cc4ccccc4)CC2C(c2ccc([N+](=O)[O-])cc2)=NO3)cc1 (configuration not stated),2.3,-15,12,10,-2,-14,3858
O=c1[nH]c2ccccc2nc1C(F)(F)F,3.2,-17,9,-9,1,5,5269
Cc1c(NS(=O)(=O)c2ccc(Br)s2)c(=O)n(-c2ccccc2)n1C,2.1,-11,nt,nt,4,1,4107
CC1CCc2cc(F)ccc2N1S(=O)(=O)c1ccc(Cl)nc1 (configuration not stated),5.4,-51,-4,-3,-3,13,3337
CCCCn1c(-c2csc(CC)c2)n[nH]c1=S,5.8,-19,0,7,-8,-4,2578
O=C(CC(SCCO)c1ccc2c(c1)OCO2)c1cccs1 (configuration not stated),16,-73,nt,nt,-3,-11,10567
O=C(O)c1ccc(/C=C/c2nc3sc4c(c3c(=O)[nH]2)CCC4)cc1,-1.5,-14,9,4,-10,1,3921

The list continues:
smiles,Sa RN4220 lethal,PrP UTR inh,Mtb hypoxia inh,Mtb hypoxia inh growth,BJeLR viability,ugtP null kill,Bead autofluor
O=C(CCCCCNC(=O)N1CCn2c1nc1ccccc12)N[C@H](C(=O)O)c1ccccc1,2.5,-10,nt,nt,-6,-4,5072
O=C(CN1C(=O)C(=O)N(CCC2=CCCCC2)C1=O)c1c[nH]c2ccccc12,-1.1,-19,-6,0,nt,-18,5099
COc1cccc(CC2(CO)CCN(C(=O)NCCc3ccccc3)CC2)c1,8.0,-12,9,-8,-4,-2,6505
COC(=O)C(C#N)C(=C1C(=O)CC(C)(C)CC1=O)c1ccc(O)cc1 (configuration not stated),2.8,-40,8,9,5,-5,3307
O=C(/C=C/c1c(F)cccc1Cl)c1ccc(O)cc1,11,-18,15,6,2,19,4614
COc1ccc(C2CC(C(F)(F)F)n3nc(C(=O)O)c(Br)c3N2)cc1 (configuration not stated),1.6,-8,6,3,-3,5,2357
O=C1NC2(CCCCC2)Oc2ccccc21,-8.7,-27,11,5,9,-5,3360
OC1C=C2CCN3Cc4cc5c(cc4C(C1O)C23)OCO5 (configuration not stated),12,nt,4,1,nt,3,nt
O=C(CN1C(=O)SC(=Cc2cccs2)C1=O)N1CCOCC1,7.3,nt,16,6,nt,9,nt
Cc1c(NC(=O)CN2C(=O)C3C4C=CC(C4)C3C2=O)c(=O)n(-c2ccccc2)n1C (configuration not stated),2.3,0,nt,nt,0,-2,2213
CCOCC(=O)Nc1sc2c(c1C(=O)OCC)CCCC2,0.4,-4,nt,nt,-8,8,2874
CC(C)(C)OC(=O)NCCCCCNC(=O)c1[nH]cnc1C(=O)N[C@@H](CCCCNC(=O)OC(C)(C)C)C(=O)OC(C)(C)C,nt,-6,nt,nt,-1,nt,2794

From PubChem BioAssay
